AmpC nodet inh: AmpC beta-lactamase inhibition, detergent-free assay; AmpC nitrocefin hydrolysis, absorbance 480 nm, no detergent; potencies from a single point are estimates; Potency, µM (top dose mostly 28.7 µM), for the others: at the highest dose activity change, negative = inhibition; hit rate 1.8% among 71,000; AID 585; active = falling curve, for most hits resting on a single point; inconclusive = weak or doubtful change; inactive = flat or rising curve; note: % of control where 0% means no effect; about half of the hits show no inhibition at the top dose; a quarter of the inactives give rising signals
Target sequence (P00811 whole entry, looked up): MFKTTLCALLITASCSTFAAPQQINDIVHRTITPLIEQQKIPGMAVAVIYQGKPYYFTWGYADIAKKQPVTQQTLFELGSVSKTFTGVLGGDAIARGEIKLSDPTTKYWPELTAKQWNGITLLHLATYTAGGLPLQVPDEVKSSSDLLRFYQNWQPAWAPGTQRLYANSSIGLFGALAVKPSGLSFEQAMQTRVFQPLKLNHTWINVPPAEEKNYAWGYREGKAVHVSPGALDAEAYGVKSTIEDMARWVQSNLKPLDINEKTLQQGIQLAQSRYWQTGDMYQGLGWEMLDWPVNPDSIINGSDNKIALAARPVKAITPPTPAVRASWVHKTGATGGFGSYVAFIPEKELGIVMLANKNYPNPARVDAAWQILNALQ
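AmpC, 20 mM phosphate pH 7.0; 15 min cpd preinc, RT; start with nitrocefin (800 uM stock); A480 kinetic read, 20 s intervals, 4 min. No-enzyme wells = negative control.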
Numbers without * were called inactive; & = joins results of further samples; [ ] = dose if it differs, or a comment. Potency is the fitted concentration of half-maximal effect. An excerpt, so the mix of outcomes need not match the whole.

1) Oc1ccc(/C=C/c2cc(O)cc(O)c2)cc1
  AmpC nodet inh: -20%

2) CCCn1cnc2c1c(=O)n(CCCCC(C)=O)c(=O)n2C
  AmpC nodet inh: -1%

3) CCCCCCCCCCCCCCC[C@H](O)[C@H](N)CO
  AmpC nodet inh: -1%

4) c1ccc(CN(CC2=NCCN2)c2ccccc2)cc1
  AmpC nodet inh: 27%

5) COc1ccccc1N1CCN(CCCNc2cc(=O)n(C)c(=O)n2C)CC1
  AmpC nodet inh: 17%

6) CN(C)CCOC(=O)[C@@H](c1ccccc1)C1(O)CCCC1
  AmpC nodet inh: -2%[12.8 µM]

7) Cc1ccccc1OC[C@H](O)CO
  AmpC nodet inh: -1%[12.8 µM]

8) CCCN[C@@H](C)C(=O)Nc1c(C)csc1C(=O)OC
  AmpC nodet inh: -21%[12.8 µM]

9) O=C(c1ccc(F)cc1)C1CCN(CCn2c(=O)[nH]c3ccccc3c2=O)CC1
  AmpC nodet inh: 49%

10) Cc1nc2ccccn2c(=O)c1CCN1CCC(C(=O)c2ccc(F)cc2)CC1
  AmpC nodet inh: 2%

Brought forward from above: three entries, followed by the next part.
8) CCCN[C@@H](C)C(=O)Nc1c(C)csc1C(=O)OC
  AmpC nodet inh: -21%[12.8 µM]

9) O=C(c1ccc(F)cc1)C1CCN(CCn2c(=O)[nH]c3ccccc3c2=O)CC1
  AmpC nodet inh: 49%

10) Cc1nc2ccccn2c(=O)c1CCN1CCC(C(=O)c2ccc(F)cc2)CC1
  AmpC nodet inh: 2%

11) CCOc1ccccc1C(N)=O
  AmpC nodet inh: -3%

12) c1ccc(CC2=NCCN2)cc1
  AmpC nodet inh: -3%[12.8 µM]

13) O=S(=O)(c1cccc2cnccc12)N1CCCNCC1
  AmpC nodet inh: 12%

14) CC(=O)c1ccc2c(c1)N(CCCN(C)C)c1ccccc1S2
  AmpC nodet inh: 35%[12.8 µM]

15) O=C(NCCc1c[nH]c2ccccc12)c1cccnc1
  AmpC nodet inh: -2%

16) Oc1cc(O)c2c(c1)O[C@H](c1ccc(O)c(O)c1)[C@@H](O)[C@@H]2c1c(O)cc(O)c2c1O[C@@H](c1ccc(O)c(O)c1)[C@H](O)C2
  AmpC nodet inh: -14%[5.75 µM]

17) CC12CCC(CC1)C(C)(C)O2
  AmpC nodet inh: -6%

18) CN(C(=O)CCCOc1ccc2[nH]c(=O)ccc2c1)C1CCCCC1
  AmpC nodet inh: 32%&29%

19) CC(=O)c1ccc(S(=O)(=O)NC(=O)NC2CCCCC2)cc1
  AmpC nodet inh: -3%

20) CC[C@H](Cc1c(I)cc(I)c(N)c1I)C(=O)O
  AmpC nodet inh: -13%[12.8 µM]

Overlap with the part before: 3 compounds, followed by the next part.
18) CN(C(=O)CCCOc1ccc2[nH]c(=O)ccc2c1)C1CCCCC1
  AmpC nodet inh: 32%&29%

19) CC(=O)c1ccc(S(=O)(=O)NC(=O)NC2CCCCC2)cc1
  AmpC nodet inh: -3%

20) CC[C@H](Cc1c(I)cc(I)c(N)c1I)C(=O)O
  AmpC nodet inh: -13%[12.8 µM]

21) CN1CCN(C(c2ccccc2)c2ccccc2)CC1
  AmpC nodet inh: -4%[12.8 µM]

22) CC(=O)Nc1ccc(C(=O)O)cc1
  AmpC nodet inh: 12%

23) CCCCCCO
  AmpC nodet inh: 2%

24) Cc1cc(-c2ccccc2)nnc1NCCN1CCOCC1
  AmpC nodet inh: -3%[12.8 µM]

25) CC(=O)NC(Cc1ccccc1)C(=O)O (centres undefined)
  AmpC nodet inh: -10%

26) C/C=C\C(=O)N(CC)c1ccccc1C
  AmpC nodet inh: -3%[12.8 µM]

27) CCOC(=O)c1ccc(N)cc1
  AmpC nodet inh: -10%[12.8 µM]

28) CCCCCCN
  AmpC nodet inh: -19%

29) CCN(CC)CCNC(=O)c1cc(Cl)c(N)cc1OC
  AmpC nodet inh: -8%[12.8 µM]

30) O=C(CCNNC(=O)c1ccncc1)NCc1ccccc1
  AmpC nodet inh: -4%[12.8 µM]

31) OCCN1CCN(CCCN2c3ccccc3Sc3ccc(Cl)cc32)CC1
  AmpC nodet inh: 124%[12.8 µM]

32) Cc1c(NC(=O)c2cccnc2)c(=O)n(-c2ccccc2)n1C
  AmpC nodet inh: -19%[12.8 µM]

Retrieved one by one from the entries so far (four):
26) C/C=C\C(=O)N(CC)c1ccccc1C
  AmpC nodet inh: -3%[12.8 µM]

24) Cc1cc(-c2ccccc2)nnc1NCCN1CCOCC1
  AmpC nodet inh: -3%[12.8 µM]

28) CCCCCCN
  AmpC nodet inh: -19%

30) O=C(CCNNC(=O)c1ccncc1)NCc1ccccc1
  AmpC nodet inh: -4%[12.8 µM]

High-throughput results as filed in PubChem.
